From PubChem
SMN2 splice up: qHTS Assay for Enhancers of SMN2 Splice Variant Expression | HEK293 SMN2-luciferase splicing reporter, luminescence, 30-36 h | 210,000 compounds, 2.8% hits | Potency, µM (doses to about 46.1 µM), inactives show at the top dose activity change, positive = activation, actives largely listed as activators | AID 1458, 2008; further: % of control where 0% means no effect; nearly all actives have a fitted effect of over 55% in size
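qHTS luciferase splicing reporter: luminescence rises when SMN2 exon 7 is included in transfected HEK293 cells. Compound exposure lasted 30-36 h at 37C, with 4.5 mM final sodium butyrate as control, followed by a ONE-Glo read.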
aGal spleen mod: qHTS Assay for Inhibitors and Activators of Human alpha-Galactosidase From Spleen Homogenate; Alpha-galactosidase A (Homo sapiens), P06280; human spleen homogenate, 4MU-alpha-Gal fluorescence, 40 min; Potency, µM (highest dose often 80 µM), without a hit: top-dose activity change, negative = inhibition, usual class: inhibitors; 240,000 compounds, 0.008% hits;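 further: 0% = enzyme with vehicle and -100% = no enzyme basal signal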
Target sequence (P06280 32-429 limits assumed): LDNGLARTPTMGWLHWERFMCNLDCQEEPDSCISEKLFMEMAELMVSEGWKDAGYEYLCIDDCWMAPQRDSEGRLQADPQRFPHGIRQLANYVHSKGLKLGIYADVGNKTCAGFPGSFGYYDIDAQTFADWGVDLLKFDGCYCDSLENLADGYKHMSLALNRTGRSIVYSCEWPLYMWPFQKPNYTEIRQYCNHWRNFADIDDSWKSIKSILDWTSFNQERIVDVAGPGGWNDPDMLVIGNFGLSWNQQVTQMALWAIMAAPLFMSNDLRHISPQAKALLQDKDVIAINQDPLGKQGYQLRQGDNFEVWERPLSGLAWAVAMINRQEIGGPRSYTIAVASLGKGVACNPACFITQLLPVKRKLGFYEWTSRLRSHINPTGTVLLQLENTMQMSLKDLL
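Spleen homogenate 1 ug + cpd (titration) + 4-MU-alpha-D-galactopyranoside 1 mM; 37C 40 min; 50 mM citrate/phosphate pH 5.0, 0.01% Tween-20; stop pH 10; fluorescence 365/440; AC50 via Hill.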
GoLoco inh red: qHTS Assay for Inhibitors of RGS12 GoLoco Motif Activity (Red Fluorophore); Gai1:RGS12 GoLoco peptide FP, rhodamine, 10 min; Potency, µM (top dose mostly 61.6 µM), for the others: top-dose activity, negative = inhibition, hits mostly inhibitors; 230,000 compounds, 0.44% hits; active means well fitted inhibition curve with a large enough effect, not every such curve was filed as active; inactive means no such curve, though single readings can be large or run the other way; further: on the % scale 0 is the no-effect control and ±100 the full control effect; nearly all actives have a fitted effect of over 30% in size; many of its hits are not listed in these tables
Target sequence (P63096 whole entry, looked up): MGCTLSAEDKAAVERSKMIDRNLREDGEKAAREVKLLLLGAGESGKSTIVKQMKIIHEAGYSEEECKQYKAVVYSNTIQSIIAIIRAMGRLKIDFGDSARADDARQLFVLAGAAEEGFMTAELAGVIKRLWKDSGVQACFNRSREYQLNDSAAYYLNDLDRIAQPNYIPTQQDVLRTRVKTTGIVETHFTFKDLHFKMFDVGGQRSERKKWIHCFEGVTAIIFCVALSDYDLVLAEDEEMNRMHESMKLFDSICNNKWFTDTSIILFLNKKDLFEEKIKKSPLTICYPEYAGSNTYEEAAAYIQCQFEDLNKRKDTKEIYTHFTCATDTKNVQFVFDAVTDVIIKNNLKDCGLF
KDM4E inh: qHTS Assay for Inhibitors of Human Jumonji Domain Containing 2E (JMJD2E). Lysine-specific demethylase 4E (Homo sapiens), B2RXH2. JMJD2E catalytic domain, FDH-coupled NADH fluorescence (FDH is formaldehyde dehydrogenase). Potency, µM (titrated, usually from 57.1 µM), for inactives: top-dose activity change, negative = inhibition, hits mostly inhibitors. 230,000 compounds, 1.6% hits; active means well fitted inhibition curve with a large enough effect, not every such curve was filed as active; inconclusive means small, poorly fitted or top-dose-only effect, or another doubt; inactive means no such curve, though single readings can be large or run the other way;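 further: 0% = wells with enzyme and -100% = buffer wells without enzyme; nearly all actives have a fitted effect of over 50% in size; many of its hits are not listed in these tables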
Target sequence (B2RXH2 1-337 limits assumed): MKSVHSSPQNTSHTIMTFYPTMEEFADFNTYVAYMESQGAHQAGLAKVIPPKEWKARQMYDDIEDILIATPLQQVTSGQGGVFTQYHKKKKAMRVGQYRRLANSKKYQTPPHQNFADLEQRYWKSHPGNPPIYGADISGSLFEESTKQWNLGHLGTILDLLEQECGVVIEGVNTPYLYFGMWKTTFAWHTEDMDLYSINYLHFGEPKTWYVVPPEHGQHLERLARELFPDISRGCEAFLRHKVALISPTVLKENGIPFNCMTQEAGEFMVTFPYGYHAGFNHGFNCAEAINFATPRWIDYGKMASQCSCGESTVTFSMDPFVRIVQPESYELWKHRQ
GAA inhib: qHTS Assay for Inhibitors of Human alpha-Glucosidase as a Potential Chaperone Treatment of Pompe Disease. AID 1466, 2008. Potency, µM (series often up to 76.9 µM), for inactives: top-dose activity change, negative = inhibition, most hits filed as inhibitors. Lysosomal alpha-glucosidase (Homo sapiens), P10253. 200,000 compounds, 0.005% hits. purified human GAA, 4-MU-alpha-glucoside fluorescence;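 further: plate controls were uninhibited enzyme wells for no effect and no-enzyme background for full effect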
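Enzyme (4 nM final) mixed with compound (up to 77 uM), then 4-MU-alpha-D-pyranoside (400 uM final) added; 20 min at room temperature, pH 5.0. Reaction stopped at pH 10, fluorescence read, AC50 derived by Hill fit.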
GAA glycogen: qHTS Assay for Inhibitors and Activators of Human alpha-Glucosidase Cleavage of Glycogen. 300,000 compounds, 0.38% hits. Lysosomal alpha-glucosidase (Homo sapiens), P10253. AID 2100, 2009. recombinant GAA, glycogen substrate, Amplex Red glucose oxidase fluorescence. Potency, µM (top dose mostly 76.4 µM), without a hit: at the highest dose activity change, negative = inhibition, most hits filed as inhibitors;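 further: 0% = full enzyme reaction and -100% = no-enzyme basal signal; the screen sought inhibitors and activators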
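qHTS, 1536-well; enzyme 4 nM final; cpd up to 77 uM; substrate bovine liver glycogen 30 ug; 50 mM citrate/phosphate pH 5.0, 0.01% Tween-20; 37 C, 40 min; Amplex Red detection 45 min RT; Hill fit → AC50.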
aGlu spleen mod: qHTS Assay for Inhibitors and Activators of Human alpha-Glucosidase From Spleen Homogenate; 240,000 compounds, 0.006% hits; Potency, µM (doses to about 79.9 µM), inactives show top-dose activity change, negative = inhibition, usual class: inhibitors; human spleen homogenate, 4-MU-alpha-glucoside fluorescence; Lysosomal alpha-glucosidase (Homo sapiens), P10253;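 further: 0% = enzyme with vehicle and -100% = no enzyme basal signal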
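Human spleen homogenate (1 ug) with 4-methylumbelliferyl-alpha-D-glucopyranoside (1 mM final) in 50 mM citrate/phosphate pH 5.0, 0.01% Tween-20; 40 min at 37 C. Stopped at pH 10; 4-MU fluorescence Ex 365/Em 440 nm; AC50 by Hill fit.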
The depositor's hits bear a star; ? = inconclusive; / = not tested or not shown; & = joins results of further samples; [ ] = another dose, or the depositor's remark. Unless noted, the call rests on the fitted dose curve; in most records, active means well fitted curve in the direction sought with a large enough effect; inconclusive means small, poorly fitted or top-dose-only effect, or another doubt; inactive means no such curve, though single readings can be large; an effect the other way counts as inactive or inconclusive. Potency means the concentration at half of the fitted maximal effect. Only part of the results is shown; count on the stated rates, not on these rows.

Values run as follows: KDM4E inh	GoLoco inh red	GAA inhib	GAA glycogen	aGal spleen mod	SMN2 splice up	aGlu spleen mod
> COCCNC(=O)c1onc(CSc2ccc(Cl)cc2)c1C(=O)O
    5%	4%	4%	-9%	-7%	-13%	6%
> O=C(COc1ccc(Br)cc1)N(CCO)CCO
    2%	5%	1%	15%	9%	/	6%
> Cc1cc(C)cc(NC(=O)COC(=O)CCCNC(=O)c2ccc(Cl)cc2)c1
    10%	-9%	-5%	15%	-1%	16%	-2%
> COc1ccc(CCNC(=O)COc2ccc(S(=O)(=O)NC3CCCCC3)cc2Cl)cc1OC
    3%	10%	?	-4%	-15%	-3%[1.84 µM]	-5%
> Cc1cccc(C)c1NC(=O)COC(=O)C1Cc2ccccc2CN1C(=O)c1ccccc1 (stereo not given)
    -4%	4%	7%	-2%	1%	3%	-8%
> CC(=O)c1c(C)[nH]c(C(=O)COc2cc(C)ccc2C(C)C)c1C
    5%	-2%	13%	3%	6%	-99%[inhibitor]	-1%
> COC(=O)COc1ccc(S(=O)(=O)Nc2ccccc2SC)cc1
    -5%	3%	-2%	2%	4%	-3%	4%
> N#C/C(=C\c1ccco1)C(=O)NCc1ccccc1
    0%	9%	-3%	1%	5%	-3%	-4%
> O=C(NCc1cccs1)c1noc2c1CCCCC2
    -1%	-1%	1%	1%	-30%	29%	-9%
> COC(=O)c1ccc(C(NC(=O)OCc2ccccc2)/C(=C/[C@@H](C)C(=O)NCc2ccc(C)o2)c2cccnc2)cc1 (stereo not given in full)
    ?	4%	/	/	0%	-4%	2%
> NC(=O)C1CCN(CC(=O)Nc2cc(Cl)ccc2Oc2ccccc2)CC1
    7%	6%	-7%	0%	-4%	-6%	-2%
> CCOc1ccc(OCC)c(NC(=O)C2CCN(S(=O)(=O)c3c(C)[nH]c(=O)[nH]c3=O)CC2)c1
    -3%	-3%	-4%	5%	2%	18%	0%
> N#C/C(=C\c1cccs1)Sc1nc2ccccc2s1
    -4%	41%[activator]	0%	-4%	4%	34%	-5%
> Cn1c(=O)c2c(nc(Br)n2CCSc2nnnn2-c2ccccc2)n(C)c1=O
    -2%	4%	-4%	5%	-7%	-19%	5%
> CCN(CC)c1nc2ccccc2[nH]1
    2%	7%	-6%	-1%	-1%	-13%	-8%
> O=C(c1cccc(C(=O)N2CCN(Cc3ccccc3)CC2)c1)N1CCN(Cc2ccccc2)CC1
    4%	-4%	-4%	1%	-8%	-72%[inhibitor]	-13%
> CC(N)=NCc1cccc(CN)c1
    -4%&7%	9%&3%&1%	/	/	6%&-18%&5%&-6%	-34%&11%[inhibitor]	-2%&-15%&2%&4%
> CCOc1ccc(N2C(=O)CC(N(C)Cc3ccccc3)C2=O)cc1 (stereo not given)
    -1%	5%	13%	-3%	8%	-14%	1%
> COc1ccc(C)cc1NC(=O)Nc1ccccc1
    -1%	11%	-10%	-20%	1%	-10%	-10%
> Cc1ccc(SCCC(=O)OCC(=O)NCC2CCCCC2)cc1
    2%	5%	0%	-2%	-5%	/	-3%
> Cc1[nH]c2ccccc2c1C(=O)CSc1nc2ccccc2c(=O)n1CCCN1CCOCC1
    5%	10%	-9%	-13%	-6%	-4%	-9%
> Cc1ccc(NC(=O)c2sc3nc(N)c(C#N)cc3c2N)cc1
    5%	/	4%	7%	-1%	/	-9%
> C[C@@H]1C=C(C(=O)N2CCN(C)CC2)O[C@H](OCc2ccc(CO)cc2)C1
    -1%	7%	/	14%	-5%	/	-2%
> COC(=O)c1ccc(Cn2cc(Cl)cn2)cc1
    1%	3%	0%	-3%	2%	-8%	2%
> COc1ccc(-c2nnc3c4ccccc4c(C)nn23)cc1
    1%	4%	-5%	4%	-6%	?	-5%
> CCc1cc(C(=O)c2ccccc2OC)c(N)s1
    1%	-7%	-6%	-27%	-7%	-25%	-7%
> CN1CCN(C(=O)Nc2ccccc2CC[N+](=O)[O-])CC1
    4%	-5%	4%	-4%	-1%	-14%	5%
> CCOc1ccccc1NC(=S)N1CCC(NC(=O)NC23CC4CC(CC(C4)C2)C3)CC1
    9%	7%	-3%	-21%	3%	-23%	1%
> Cc1noc(C(=O)NCc2cccnc2)c1Cl
    6%	4%	-2%	/	-8%	7%	-3%
> C[C@@H](O)C1NC(=O)[C@H](CCCCN)NC(=O)c2cc([N+](=O)[O-])cc(I)c2OCC[C@@H](C(N)=O)NC1=O (stereo not given in full)
    2%	-4%	-7%	2%	11%	-8%	-11%
> Cc1cc(NC(=O)COC(=O)CCC(=O)c2ccc(F)cc2)no1
    -5%	1%	10%	9%	1%	-2%	0%
> Cc1cc(C)c(C#N)c(SCCS(=O)(=O)c2ccc(C(C)(C)C)cc2)n1
    0%	-4%	-4%	-6%	3%	-32%[inhibitor]	3%
> CSc1ccccc1NC(=O)CN(C)CC(=O)Nc1cccc(Br)c1
    -21%	3%	-4%	1%	1%	4%	5%
> CCC(C)NC(=O)CSc1n[nH]c(-c2cc(Cl)ccc2OC)n1 (stereo not given)
    4%	1%	9%	0%	3%	0%	-9%
> COCCOC(=O)C1=C(N)Oc2c(oc(CO)cc2=O)C1c1ccccc1F (stereo not given)
    -10%	12%	-13%	-4%	0%	-11%	-5%
> Cc1cccc(-n2nc3c(c2NC(=O)c2ccc(Br)o2)CSC3)c1C
    -9%	4%	-1%	1%	2%	-8%	-1%
> c1ccc2[nH]c(NCc3ccc4c(c3)OCO4)nc2c1
    -6%	5%	14%	-9%	0%	/	1%
> CC(=O)Nc1ccc(NC(=O)C2CC(=O)N(c3cccc(Cl)c3)C2)cc1 (stereo not given)
    -6%	2%	0%	-1%	-2%	5%	1%
> Cc1cccc(Cc2nnc(CCC(=O)NCc3ccncc3C)o2)c1
    3%	3%	15%	12%	-3%	/	1%
> COc1ccc(NS(=O)(=O)c2cccc3nonc23)c(OC)c1
    -4%	-9%	-8%	5%	-4%	?	-2%
> CN(CCc1nc2ccccc2[nH]1)Cc1nc(CC2CC2)no1
    8%	12%	-2%	19%	3%	/	5%
> NC(=O)c1ccccc1N/C=C/C(=O)c1ccco1
    ?	3%	-17%	1%	2%	11µM*	-7%
> COc1ccc(CC(=O)NCC2(c3ccc(OC)c(OC)c3)CCOCC2)cc1
    -2%	13%	-5%[15.4 µM]	-4%	-4%	5%	7%
> C#C[C@]1(O)CC[C@@H]2[C@H]3CCC4=Cc5oncc5C[C@]4(C)[C@@H]3CC[C@@]21C
    -6%[25.5 µM]	4%[21.6 µM]	/	/	4%[29.1 µM]	-15%[20.6 µM]	5%[29.1 µM]
> Cc1ccccc1NC(=O)CC(O)(C(F)(F)F)C(F)(F)F
    6%	2%	-4%	-13%	-6%	-19%	-4%
> CCOc1cc(NC(=S)NCCCN(C)C)c(OCC)cc1NC(=O)C1CC1
    -6%	-5%	13%	-27%	-19%	/	3%
> COc1cc(C(=O)NCc2ccc(F)cc2)cc(Cl)c1OC
    -4%	13%	3%	-8%	2%	-7%	6%
> CCCC(=O)Nc1ccc(NC(=O)c2cccs2)cn1
    1%	5%	-3%	3%	0%	?	-15%
> COc1ccc(Oc2ncc3nc(-c4ccc(OC)cc4)c(=O)n(C)c3n2)cc1
    /	3%	/	/	7%	/	3%
> CSc1nsc(SCCN2C(=O)c3ccccc3C2=O)n1
    0%	5%	-7%	5%	-9%	11%	7%
> N=C1c2ccccc2CN1c1ccc(S(=O)(=O)N2CCCCC2)cc1
    -2%	6%	0%	22%	-4%	-8%	-13%
> CCOc1ccc(N(CC(=O)N2CC=C(c3ccccc3)CC2)S(=O)(=O)c2c(C)noc2C)cc1
    -10%	-1%	?	-23%	9%	-27%	-6%
> N#Cc1cnn(-c2ncnc3sc4c(c23)CCCC4)c1N
    -1%	6%	7%	-23%	9%	-13%	7%
> CCN(CC)S(=O)(=O)c1cc(NC(=O)Cn2ncc(Cl)c(Cl)c2=O)ccc1C
    -6%	7%	-13%	1%	-14%	/	3%
> Cc1ccccc1NCC(=O)N/N=C/c1c[nH]c2ccccc12
    0%	-20%	?	-10%	-3%	-69%[inhibitor]	-1%
> COc1ccccc1Oc1ccc2c(c1)C(=O)N(c1ccc(Br)c3cccnc13)C2=O
    1%	6%	-2%	-2%	?	-10%	-15%
> CCOc1cc(/C=N/NC(=O)Cc2ccc(C(F)(F)F)cc2[N+](=O)[O-])ccc1O
    3%	2%	3%	-19%	-16%	0%	-11%
> COc1cccc(/C(O)=C2/C(=O)C(=O)N(CCCN3CCOCC3)C2c2ccncc2)c1 (stereo not given)
    0%	3%	0%	-11%	-8%	-9%	-4%
> O=C1C2C3c4ccccc4C(c4ccccc43)C2C(=O)N1Cc1cccnc1 (stereo not given)
    2%	-55%	-5%	-2%	-1%	-6%	-2%
> O=C(c1cnccn1)N1CCC2(CC1)CCN(c1cccc(-c3ccccc3)c1)CC2
    /	9%	/	/	4%	-48%[inhibitor]	0%

Remaining list, next part:
Values run as follows: KDM4E inh	GoLoco inh red	GAA inhib	GAA glycogen	aGal spleen mod	SMN2 splice up	aGlu spleen mod
> O=C(Nc1nc(-c2ccccn2)cs1)c1cc2ccccc2o1
    ?	58%[activator]	-1%	10%	-5%	-77%[inhibitor]	-6%
> CCOC(=O)c1ccc(NC(=O)c2ccc(NS(C)(=O)=O)cc2)cc1
    -8%	-6%	-3%	-2%	0%	-13%	1%
> Cc1ccsc1/C=N/NC(=O)c1c[nH]c2ccccc12
    1%	4%	-4%	7%	8%	?	-14%
> C=CCOC(=O)c1cn(CC)c2nc(C)ccc2c1=O
    -3%	-1%	-3%	3%	-4%	-16%	-21%
> CCCCc1nnc(NC(=O)CSc2nc(N)cc(=O)[nH]2)s1
    3%	-5%	-2%	8%	?	-5%	-17%
> COc1ccc2c(CC(=O)OCC(=O)N3CCc4ccccc43)coc2c1
    3%	2%	-6%	10%	11%	21%	2%
> CC1(C)Cc2cccc(OCC(=O)N3CCN(S(=O)(=O)c4ccc(F)cc4)CC3)c2O1
    5%	-7%	-10%	-6%	-10%	-20%	-19%
